KCNQ2 enhance: KCNQ2 (rat) channel potentiation. 0.54% of 310,000 active. AID 2239. CHO-K1 KCNQ2, FluxOR thallium flux fluorescence; hits give high values. B-score at 10 µM;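 active = fluorescence ratio B-score at least 3 SD of library B-scores, with initial fluorescence B-score within 3 SD, cut at about 5.3 in these data; same plate scores as AID 2156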;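 note: B-score of peak minus minimum over baseline fluorescence ratio after K+ and Tl+ stimulus; positive B-score means potentiation of KCNQ2 with more thallium influx and brighter signal; only the inactives scoring about 0 or higher are listed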
Target sequence (O88943 whole entry, looked up): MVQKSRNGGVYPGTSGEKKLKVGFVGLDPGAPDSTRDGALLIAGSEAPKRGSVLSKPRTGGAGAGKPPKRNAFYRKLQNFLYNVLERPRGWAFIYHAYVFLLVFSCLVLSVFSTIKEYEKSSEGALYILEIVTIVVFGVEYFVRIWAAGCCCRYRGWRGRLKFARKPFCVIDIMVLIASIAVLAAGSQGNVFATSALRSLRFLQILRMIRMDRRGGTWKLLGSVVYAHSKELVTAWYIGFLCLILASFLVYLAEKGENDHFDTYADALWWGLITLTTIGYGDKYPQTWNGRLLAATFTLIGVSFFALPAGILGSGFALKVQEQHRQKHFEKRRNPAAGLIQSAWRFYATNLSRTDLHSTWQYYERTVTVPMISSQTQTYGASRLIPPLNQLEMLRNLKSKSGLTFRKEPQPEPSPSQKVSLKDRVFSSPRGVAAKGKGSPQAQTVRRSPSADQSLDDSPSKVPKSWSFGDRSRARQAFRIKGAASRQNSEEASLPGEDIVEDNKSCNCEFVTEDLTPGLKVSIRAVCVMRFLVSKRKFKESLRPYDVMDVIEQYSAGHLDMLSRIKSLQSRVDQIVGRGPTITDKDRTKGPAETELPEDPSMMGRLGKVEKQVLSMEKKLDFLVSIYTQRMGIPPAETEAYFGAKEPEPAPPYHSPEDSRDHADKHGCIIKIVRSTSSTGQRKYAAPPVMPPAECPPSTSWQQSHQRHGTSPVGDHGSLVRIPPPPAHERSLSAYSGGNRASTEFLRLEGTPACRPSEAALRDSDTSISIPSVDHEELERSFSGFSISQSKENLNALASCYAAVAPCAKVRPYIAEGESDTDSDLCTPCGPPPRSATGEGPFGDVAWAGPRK
KCNQ2 enhance baseline: recorded beside KCNQ2 enhance, whose call it bears; B-score; compound at 10 µM; measured here: initial fluorescence intensity artifact check;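 brightness before thallium and not channel activity; 0 = typical well and far values either way flag optical interference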
Numbers without * were called inactive; x = not tested or not shown. These rows are one share of the data; count on the stated rates, not on these rows.

Values run as follows: KCNQ2 enhance baseline, KCNQ2 enhance
> COCCN(Cc1cc2cccc(C)c2[nH]c1=O)C(=O)c1ccccc1
→ 0.33, 0.02
> Cc1ccc(C(=O)CSc2nsc(C)c2C#N)cc1
→ -2.6, 0.73
> COC(=O)CCc1c(C)[nH]c(=S)[nH]c1=O
→ -0.01, 0.27
> C/C(=N\Nc1ccccc1C)c1cccnc1
→ 0.52, 0.02
> Cc1ccc(CNC(=O)CCc2ccc(S(=O)(=O)NC3CCCCC3)cc2)cc1
→ 2.1, 0.4
> CSCCC(NC(=O)c1ccoc1C)C(=O)O (configuration not stated)
→ 0.62, 0.75
> O=C(CCN1CCCCCC1)Nc1ccccc1F
→ 0.27, 0.01
> COc1ccc(-c2nn(CCC#N)cc2/C=N/O)cc1OC
→ -0.84, 0.43
> O=C(Nc1ccccc1)c1ccc(F)c(S(=O)(=O)N2CCOCC2)c1
→ 0.59, 1.2
> CCC(=O)N1CCN(CCN=CC2=C(O)CC(c3ccc(OC)cc3)CC2=O)CC1 (configuration not stated)
→ 1, 0.1
> CC(C)(C)c1ccc(S(=O)(=O)CCc2ccccn2)cc1
→ 0.07, 1.1
> COc1cccc(CC(=O)Nc2nc(-c3ccc(OC)c(OC)c3)cs2)c1
→ -1.6, 1.5
> CN(CCc1cnn(C)c1)Cc1cn(C)nc1-c1ccc2c(c1)OCCO2
→ -0.1, 0.62
> Cc1csc(SCC(=O)NC(C)C2CC3CCC2C3)n1 (configuration not stated)
→ -1.2, 3.4
> C[C@H]1CC[C@@]2(O[C@H](CCO)C[C@@H](O)[C@@H]2O)O1
→ -1.6, 2.1
> Cc1sc2ncnc(SCC(=O)c3ccc(O)cc3O)c2c1C
→ -0.5, 1.6
> COC(C/C=C/[C@@H](O)COCc1ccccc1)OC
→ 0.47, 0.41
> Clc1ccccc1-c1nn2c(-c3ccncc3)nnc2s1
→ 0.07, 1.2
> C[C@@H](C(=O)OCC(=O)Nc1cc(S(=O)(=O)N2CCOCC2)ccc1Cl)N1C(=O)C2CCCCC2C1=O (some centres not stated)
→ 0.43, 0.48
> O=C(NNC(=S)NC(=O)c1sc2ccccc2c1Cl)c1ccc(Cl)cc1
→ -0.01*, 13*
> COc1ccccc1C(=O)NCCC(=O)NNC(=O)C1COc2ccccc2O1 (configuration not stated)
→ 1.4, 1.1
> CCN(CC)CCNC(=O)c1ccc(Sc2ccc(C)cc2)c(NC(C)=O)c1
→ 0.46, 0.35
> COCCCNC(=O)CC(NS(=O)(=O)c1ccc(F)cc1)c1ccc(OC)cc1 (configuration not stated)
→ 2.3, 1.2
> CC(NC(=O)c1ccco1)c1nc(-c2ccc(C(C)(C)C)cc2)no1 (configuration not stated)
→ 1.2, 0.47
> CCN(CC)S(=O)(=O)c1ccc(/C=C/C(=O)Nc2ccccc2N2CCOCC2)cc1
→ -1.1, 0.3
> CCC(C)NC(=O)Nc1ccc(Br)cc1Cl (configuration not stated)
→ 0.11, 2.1
> O=C(OCCn1cncn1)c1cc2ccccc2oc1=O
→ -0.07, 0.51
> O=C(NCCO)C1CCN(C(=O)c2ccc(-c3ccccc3)cc2)CC1
→ 0.16, 0.87
> COC(=O)CSc1nnc(CNC(=O)c2cc(OC)c(OC)c(OC)c2)n1C
→ 0.51, 1.9
> Cc1cc(C(=O)Nn2cnnc2)ccc1[N+](=O)[O-]
→ -1.2, 1.2
> N#Cc1ccc(NC(=S)Nc2ccccc2)cc1
→ -2, 0.79
> COc1ccc(S(=O)(=O)N2CCN(c3ncccn3)CC2)cc1OC
→ 0.6, 1.2
> Cc1ccccc1NC(=O)CSc1nc(O)cc(=O)n1C
→ -0.64, 1.4
> O=C(Nc1ccnn1C1CCN(C(=O)c2cccc(C(F)(F)F)c2)CC1)C1CC1
→ 0.88, 1.4
> Cc1ccccc1CS(=O)(=O)CCC(=O)NCc1ccccn1
→ 0.12, 1.8
> O=C(C1CCCO1)N1CCN(C(=S)Nc2cccc(F)c2)CC1 (configuration not stated)
→ -2.5, 0.2
> O=C(NC1CCCC1)[C@@H]1CSC2c3ccccc3C(=O)N21 (some centres not stated)
→ 1.3, 0.13
> Nc1ccc(Oc2ccc(Cl)cc2)cc1
→ 1.6, 1.5
> CCCCC(=O)Nc1ccccc1CC
→ 0.08, 0.01
> Cc1ccc(-c2nc(CS(=O)(=O)CC(=O)NCCN3CCOCC3)c(C)o2)cc1
→ -0.73, 0.97
> CSCCC(NS(=O)(=O)c1ccc2c(c1)oc(=O)n2C)C(=O)NC1CCC(C)CC1 (configuration not stated)
→ 0, 0.11
> CCC(C)NC(=O)Cc1c(C)c2cc3c(cc2oc1=O)OC(C)(C)CC3 (configuration not stated)
→ 0.24, 0.64
> CC(C)[C@H](NC(=O)c1cccc(S(=O)(=O)N2CCCC2)c1)c1nc2ccccc2[nH]1
→ 1.7, 0.8
> CC1S/C(=N/N=C/c2ccco2)N(Cc2ccccc2)C1=O (configuration not stated)
→ -1.1, 0.12
> COc1cc(OC)cc(C(=O)N2CCC3(CC2)NCCc2[nH]cnc23)c1
→ 1.3, 1.4
> COc1cc(/C=C2\COC/C(=C\c3ccc(O)c(OC)c3)C2=O)ccc1O
→ 0.34, 1.3
> O=C(C1CCCN(S(=O)(=O)c2ccccc2)C1)N1CCN(c2ccc(F)cc2)CC1 (configuration not stated)
→ -0.9, 1.5
> Cn1nc(-c2ccc(N3CCCCC3)c(NC(=O)c3ccco3)c2)c2ccccc2c1=O
→ x, -5.6
> CCOC(=O)CSc1nnc(Cc2ccccc2)n1-c1ccc(C)cc1
→ -0.33, 1.5
> COc1ccc(NC(=O)Cn2cnc3sc(C)c(S(=O)(=O)N4CCOCC4)c3c2=O)c(OC)c1
→ -0.17, 0.95
> COc1ccc(CCNC(=O)C(=O)NCC2CCCN2S(=O)(=O)c2cccs2)cc1OC (configuration not stated)
→ -0.52, 0.95
> CCCCc1nc(SCC(=O)Nc2nnc(CCCC)s2)n[nH]1
→ 0.45, 1.7
> Cc1cccc(NC(=O)CCc2ccc(C)o2)c1
→ 0.63, 1.2
> CC(=O)Nc1ccc(NC(=O)C2(C)CC2(Cl)Cl)cc1 (configuration not stated)
→ -1.2, 1.3
> O=C(O)c1cc(NC(=O)c2ccccc2F)cc(NC(=O)c2ccccc2F)c1
→ -0.83, 1.1
> O=C(NCC1CCCN1S(=O)(=O)c1cccs1)c1cccc(F)c1 (configuration not stated)
→ -0.01, 1.2
> O=C(C1CCCCN1S(=O)(=O)c1ccccc1[N+](=O)[O-])N1CCCC1 (configuration not stated)
→ -1.4, 0.79
> Cc1cc(C(=O)Nc2cccc([N+](=O)[O-])c2C)cs1
→ -1.3, 0.19
> CCC(=O)/C=C1/Sc2ccc(OC)cc2N1CCO
→ 0.6, 0.49
> COc1ccc(Cl)cc1Nc1nc(C)nc2c1nnn2Cc1ccccc1
→ 0.8, 0.1

Later entries:
Values run as follows: KCNQ2 enhance baseline, KCNQ2 enhance
> CCN1C(=O)C(=O)N(CC(=O)N(C)CC(=O)Nc2ccccc2Cl)C1=O
→ 0.45, 0.39
> O=C(Nc1cccc(F)c1)C1CCN(C(=O)c2ccccc2Cl)CC1
→ 0.1, 1.5
> C(=N\Nc1nncn1/N=C/c1ccco1)/c1ccco1
→ -0.01, 0.02
> CCc1ccc(NC(=O)CCS(=O)(=O)c2ccc(Br)cc2)cc1
→ 0.44, 0.19
> CCN1CCN(C(=S)c2ccc(O)cc2)CC1
→ 2.5, 0.44
> C=CCc1cccc2cc(C(=O)NCc3ccc(C(=O)OCC)o3)c(=O)oc12
→ -0.2, 0.76
> CC1CCCCC1NC(=O)c1cccc(S(=O)(=O)N2CCN(Cc3ccccc3)CC2)c1 (configuration not stated)
→ 1.2, 1.2
> CCOC(=O)C1=C(C)N[C@@]2(O)c3ccccc3C(=O)[C@@]12O
→ 0.3, 0.1
> NC(=O)[C@@H]1CCCN1Cc1nc(-c2ccc(C(F)(F)F)cc2)no1
→ -0.85, 1.8
> Cc1ccc(C)c(S(=O)(=O)N2C(=S)NC(=O)C2CC(C)C)c1 (configuration not stated)
→ 1.6, 1.2
> CCC(c1nnnn1C1CCCC1)N1CCN(C(=O)c2ccco2)CC1 (configuration not stated)
→ -0.2, 0.47
> C/C(=N\NC(=O)c1ccccc1C)c1ccc(N2CCOCC2)cc1
→ -0.87, 0.12
> Cc1sc2ncnc(Sc3nnnn3-c3ccc(Cl)cc3)c2c1C
→ 0.88, 0.46
> Oc1c(Br)cc(Br)cc1C=Nc1cccnc1
→ 2.8*, 8.4*
> NC(=O)C1CCC(NC(=O)OCc2ccccc2)CC1 (configuration not stated)
→ -0.76, 0.34
> COc1ccc(CNC(=O)C2CCCN(c3ncnc4c3nc3n4CCCCC3)C2)cc1 (configuration not stated)
→ -0.33, 0.44
> Cn1c(=O)c2c(SCC(=O)Nc3nccs3)nc(C3CC3)nc2n(C)c1=O
→ 1.4, 0.34
> O=C(/C=C/NCc1cccnc1)c1ccc(Br)cc1
→ 0.37, 0.68
> CCOc1cccc2sc(N(CCN(CC)CC)C(=O)c3ccc(S(=O)(=O)N4CCCC4)cc3)nc12
→ -0.49, 0.68
> CCCn1nc(C(=O)NCC(C)(C)N2CCOCC2)c2ccccc2c1=O
→ -0.23, 1
> O=C(COC(=O)c1ccc2c(c1[N+](=O)[O-])C(=O)c1ccccc1C2=O)NC1CC1
→ 0.02, 0.05
> O=C(OCC(=O)N1CCOCC1)C(c1ccccc1)c1ccccc1
→ 0.29, 0.85
> Oc1nc(Nc2ccccc2)sc1/C=C1\C=Nc2ccccc21
→ -0.66, 0.12
> Cc1ccc2c([N+](=O)[O-])cccc2n1
→ -0.31, 0.12
> OCCNc1nc(-c2ccccc2)nc2c1oc1ccccc12
→ 1.4, 0.03
> Cc1ccccc1OCC1Cn2c(nc3c2c(=O)[nH]c(=O)n3C)O1 (configuration not stated)
→ 0.28, 0.09
> COc1ccc(-n2ncc3c(N4CCc5ccccc54)ncnc32)cc1
→ 1.8, 0.75
> Cc1c(NC(=O)c2cccnc2C(=O)O)cccc1C(=O)O
→ -0.73, 0.95
> Cc1cccc(N=C(NO)c2nonc2N)c1
→ -1.1, 0.16
> COC(=O)c1sccc1NC(=O)C1CC1
→ 0.98, 0.66
> Cc1nnc(N(Cc2ccco2)C(=O)c2ccno2)s1
→ 0.95, 0.3
> Cc1ccc(-n2c(=O)c3ccc(C(=O)NCc4ccco4)cc3n(Cc3ccccc3C#N)c2=O)cc1
→ -0.08, 1.1
> CC1CCC(NC(=O)c2cccc(S(=O)(=O)N3CCN(c4ccc(F)cc4)CC3)c2)CC1 (configuration not stated)
→ 0.38, 1.1
> C=CCOc1ccc(/C=N/NC(=O)C(=O)N2CCCCCC2)cc1OC
→ -0.02, 0.31
> CCN(CC)S(=O)(=O)c1ccc(C(=O)OCC(=O)c2ccc3c(c2)NC(=O)CO3)cc1
→ -1.3, 0.6
> CCCCC(C(=O)O)C(C)CC(=O)Nc1nccs1 (configuration not stated)
→ 0.11, 0.2
> Clc1ccc(-c2nnc3ccccn23)cc1
→ -0.25, 2
> CCCCCC(O)(c1ccc(OCC)cc1)C(CN1CCOCC1)c1ccccc1 (configuration not stated)
→ 0.06, 0.62
> O=C1[C@@H]2Cc3c([nH]c4ccccc34)C(c3cccc([N+](=O)[O-])c3)N2C(=O)CN1CCCO (some centres not stated)
→ 1.2, 0.64
> Cn1c(=O)c2c(nc(NCc3cccnc3)n2Cc2ccccc2Cl)n(C)c1=O
→ -0.55, 0.06

Quoted at random: 5 compounds from above, in no set order.
Values run as follows: KCNQ2 enhance baseline, KCNQ2 enhance
> COC(=O)c1sccc1NC(=O)C1CC1
→ 0.98, 0.66
> Cc1c(NC(=O)c2cccnc2C(=O)O)cccc1C(=O)O
→ -0.73, 0.95
> CC1CCC(NC(=O)c2cccc(S(=O)(=O)N3CCN(c4ccc(F)cc4)CC3)c2)CC1 (configuration not stated)
→ 0.38, 1.1
> C=CCOc1ccc(/C=N/NC(=O)C(=O)N2CCCCCC2)cc1OC
→ -0.02, 0.31
> COc1ccc(-n2ncc3c(N4CCc5ccccc54)ncnc32)cc1
→ 1.8, 0.75

More records follow:
Values run as follows: KCNQ2 enhance baseline, KCNQ2 enhance
> CCOC(=O)/C=c1\s/c(=C\c2ccc3cc(OC)ccc3c2)c(=O)n1CC(=O)NCC1CCCO1 (configuration not stated)
→ 2.7, 0.14
> CC(C)(CO)NCc1cccs1
→ 0.44, 0.79
> CCOC(=O)N1CCC(=NNS(=O)(=O)c2cccc([N+](=O)[O-])c2)CC1
→ 0.59, 0.21
> CN1C(=O)C(=O)/C(=C(/O)c2ccccc2)C1c1ccccc1 (configuration not stated)
→ -0.03, 0.12
> O=C1Nc2cc(C(=O)NCCCN3CCCC3)ccc2S/C1=C/c1ccccc1F
→ 0.14, 1.8
> CC(C)NCC#CCOc1ccc(Cl)cc1
→ 0.37, 1.3
> CCOc1cc(C=O)cc(Br)c1OCC(N)=O
→ 1.6, 1.9
> O=C(c1nc(SCc2ccc([N+](=O)[O-])cc2)n2ccccc12)C(F)(F)F
→ -0.03, 0.44
> Clc1cccc(-c2nc(-c3ccccn3)no2)c1
→ -0.17, 0.79
> CCn1cc([N+](=O)[O-])c(C(=O)Nc2ccn(Cc3ccccc3)n2)n1
→ 1.1, 0.36
> O=C(CCc1ccc(S(=O)(=O)N2CCOCC2)cc1)Nc1cc(Cl)ccc1N1CCOCC1
→ 1.9, 0.03
> COc1cc(C2C(C#N)=C(N)Oc3n[nH]c(-c4cccs4)c32)cc(OC)c1O (configuration not stated)
→ -0.1, 0.98
> Cc1ccc(C)c(SCC(=O)NNC(=O)c2ccccc2)c1
→ -0.84, 1.9
> CC(=O)N1CCOc2ccc(S(=O)(=O)NCCc3ccc(S(N)(=O)=O)cc3)cc21
→ 0.33, 1.2
> O=C(OCCN(CCOC(=O)c1ccncc1)S(=O)(=O)c1cccs1)c1ccncc1
→ -2.3, 1.1
> COc1ccc(S(=O)(=O)N2CCCCCC2)cc1NC(=O)Cc1ccccc1
→ 0.62, 1.9
